# MgrA-DNA mod = S. aureus MgrA-DNA binding modulation; fluorescence polarization; inhibition, %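 (about 10 µg/mL by stock and volumes)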; actives 0.13% (n = 84,000);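 active = above 50% in either of two replicates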;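 also: 0% = protein plus DNA without compound and 100% = DNA alone without protein; higher means less MgrA bound to DNA so lower polarization; one replicate is shown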
# S aureus helic = S. aureus DNA helicase inhibition. purified S. aureus helicase, fluorescence unwinding assay; about half of the hits fall short of the stated cut. actives 0.05% (n = 120,000). AID 485395. inhibition, %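 (tested at about 80 µM)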;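 active = both duplicates at 50% or more, or one of them with a favoured structure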;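 also: 0% = mean of negative control wells and 100% = mean of positive control wells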
# * marks the source's active call; other numbers are inactive results; / = not tested or not shown; & = joins results of further samples. A portion of the library. The share of hits here may be higher or lower than overall.
SMILES,MgrA-DNA mod,S aureus helic
CCCS(=O)(=O)/C(C#N)=C/Nc1ccc2c(c1)OCCO2,-0.1,/
Cc1cc(N2CCN(S(=O)(=O)c3ccccc3)CC2)c2ccccc2n1,-1.0,/
Cc1cccc(NC(=O)c2ccc(Br)o2)c1,-0.6,10.0
O=c1cc(O)c2ccccc2[nH]1,0.9&-2.1,0.0
O=C(COC(=O)c1cc(-c2ccco2)nc2ccccc12)c1ccccc1,/,6.0
Cc1sc2ncn(CC(=O)NC3CCCCCC3)c(=O)c2c1S(=O)(=O)N1CCN(c2ncccn2)CC1,/,3.0
COC(=O)/C=C/S(=O)(=O)c1ccc2ccccc2c1,-2.0,17.0
CCn1c(CCNC(=O)c2ccccc2OC)nc2ccccc21,-0.8,1.0
O=P(O)(CN1CCOCC1)C1CCCCC1O (stereo not given),0.9,17.0
CC(=O)Nc1nc([N+](=O)[O-])c(SCC(=O)O)s1,-1.5,/
O=C(NCCCn1ccnc1)c1nn2c(C(F)(F)F)cc(-c3cccs3)nc2c1Br,1.0,/
O=C(NC1CCCCCC1)N1CCOCC1,0.4,15.0
Cc1nnc(SCC(=O)n2c3c(c4c2CCCC4)CCCC3)n1Cc1ccccc1,7.5,14.0
CC(C(=O)O)N1C(=O)NC2NC(=O)NC21 (stereo not given),-3.0,9.0
CC1Cc2cc(OCC(=O)O)ccc2C1=O (stereo not given),-6.5,8.0
COc1ccc(/C=C2/SC(=O)N(CCC(=O)O)C2=O)cc1,/,-23.0
CC1=CC(=O)N(c2ccc(C)cc2)C1c1ccc(Cl)cc1 (stereo not given),/,-18.0
Fc1cccc(CNCC2CCCO2)c1 (stereo not given),3.6,10.0
CC1Cn2c(nnc2C23CC4CC(CC(C4)C2)C3)S1 (stereo not given),11.8,11.0
COc1ccc(NC(C)=O)cc1NC(=O)C(NC(=O)c1cc(OC)c(OC)c(OC)c1)C(C)C (stereo not given),/,-1.0
CN(CC(=O)NCCc1ccccc1)c1nnc(N2CCCC2=O)s1,/,12.0
COC(=O)c1cnn2c1NCN(Cc1cccc(OC)c1)C2,/,20.0
N#C/C(NCc1ccccc1Cl)=C(\C#N)NCc1c(F)cccc1Cl,-1.0,/
COc1ccc(NC(=O)c2ccco2)c(NC(=O)c2ccc(I)cc2)c1,-0.6,-6.0
CCCn1c(=N)c(C(N)=O)cc2c(=O)n3cc(C)ccc3nc21,/,-13.0
O=C(O)CCP(=O)(O)CN1CCCCC1,/,-31.0
C1=CC2C(C1)C1CC2C2N=NN(c3ccccc3)C12 (stereo not given),/,5.0
C/C(=N\N=C(N)N)c1ccc(C)cc1,1.3,11.0
O=C(COc1ccc(F)cc1Cl)NCC1CN(Cc2ccccc2)CCO1 (stereo not given),/,18.0
O=c1c2cc(Cl)ccc2nc2ccc(N3CCCC3)nn12,/,17.0
CC(=NCC1CCCO1)C1=C(O)CC(C)(C)CC1=O (stereo not given),0.7,7.0
Cc1ccc(Cc2cnc(NC(=O)C(c3ccccc3)c3ccccc3)s2)cc1,1.4,17.0
Cc1ccc(S(=O)(=O)N(C)C)cc1C(=O)OCC(=O)c1cc2c3c(c1)CC(=O)N3CCC2,/,-5.0
CCN(C(=O)C1Cc2ccccc2CN1S(=O)(=O)c1ccc(F)cc1)c1ccccc1 (stereo not given),-1.6,8.0
Cc1ccc2nc(COc3ccccc3C#N)cc(=O)n2c1,/,-4.0
CS(=O)(=O)N1CCC(C(=O)NCC2CCCO2)CC1 (stereo not given),-1.1,-2.0

# Some of these compounds in order of formula weight, rising.
SMILES,MgrA-DNA mod,S aureus helic
CC1Cn2c(nnc2C23CC4CC(CC(C4)C2)C3)S1 (stereo not given),11.8,11.0
COC(=O)c1cnn2c1NCN(Cc1cccc(OC)c1)C2,/,20.0
COc1ccc(NC(C)=O)cc1NC(=O)C(NC(=O)c1cc(OC)c(OC)c(OC)c1)C(C)C (stereo not given),/,-1.0

# Remaining list, next part
SMILES,MgrA-DNA mod,S aureus helic
Cc1ccc2c(c1)nc(C(=O)O)n2CCO,-6.2,0.0
CC(C)C(=O)OCc1cc(=O)n2cc(Br)ccc2n1,/,0.0
COc1cc(C)nn1-c1ccc(Cl)cc1,2.7,-24.0
N#CC1=C2SCN(Cc3ccccc3)CN2C(=O)CC1c1cccs1 (stereo not given),/,-19.0
CC(=O)OC(C(=O)NCc1ccc(F)cc1)c1ccccn1 (stereo not given),-2.5,4.0
C=CCN1C(=O)/C(=C/c2cc(C)n(-c3ccc(CC)cc3)c2C)SC1=S,1.7,7.0
CCCOC1(NC(=O)c2ccc(C)cc2)C(C)=CC(=O)C=C1C,/,-19.0
NC(=O)CN1C(=O)C(O)(CC(=O)c2ccc(Cl)s2)c2ccccc21 (stereo not given),-3.5,-4.0
Cc1ccc(-c2nc(CS(=O)CC(=O)NC3CCCCC3)c(C)o2)cc1 (stereo not given),/,22.0
O=C1c2ccccc2N2C(=O)CCC2(C(=O)Nc2ccc(N3CCCCC3)cc2)N1Cc1ccccc1 (stereo not given),/,2.0
CCC(=O)Nc1ccc2c(c1)nc(CCNC(=O)c1ccccc1)n2C,0.2,-5.0
CN(Cc1ccccc1)C(=O)c1cc(-c2ccc(F)cc2)on1,/,-8.0
COc1ccc(/C(COc2ccccc2O)=N\O)cc1,/,12.0
CNC(=O)NC(=O)CN1CCCc2cc(C)ccc21,/,-10.0
O=C(c1ccccc1)n1nccc1-c1cc(-c2ccccc2)no1,3.1,/
NNC(=S)Nc1ccc2c(c1)OCCO2,0.1,/
CCCN(CCC)S(=O)(=O)c1ccc(C(=O)N2CCC3c4ccccc4C(=O)N3C2)cc1 (stereo not given),-0.9,/
CCCn1c(SCC(N)=O)nnc1C(C)C,-0.3,16.0
CC1=NN(C(=S)c2ccc(C)cc2)C(C)(O)C1CC(C)C (stereo not given),7.8,8.0
C=CC[C@H]1Cc2ccccc2[C@H](CC=C)N1,1.0,11.0
COC(=O)CC1SCCNC1=O (stereo not given),/,-13.0
O=C(O)COc1cccc(-c2nc3ccccc3s2)c1,/,25.0
CC/C(=N\OC(=O)c1cccc(C(F)(F)F)c1)c1ccc(-c2ccccc2F)cc1,0.1,/
C/C(=N\O)c1cc(-c2ccccc2)c(C(F)(F)F)s1,0.4,/
O=c1cc(-c2ccccc2)oc2cc(Cl)cc(Cl)c12,-1.5,/
Cc1c(N=C2SC(CC(=O)O)C(=O)N2/N=C/c2ccccc2O)c(=O)n(-c2ccccc2)n1C (stereo not given),1.1,0.0
CC(=O)ON1C(=O)c2cccc3c(Br)ccc(c23)C1=O,21.8,2.0
O=C(CCN1C(=O)c2ccccc2C1=O)OCc1ccc(F)cc1,0.6,23.0
Cc1ccccc1NC(=O)c1ccc(CN2CC(=O)N3CCCCC3C2=O)cc1 (stereo not given),/,24.0
Cn1c2ccc(Br)cc2c2nnc(SCc3ccc4nonc4c3)nc21,2.0,1.0
Cc1onc(-c2c(Cl)cccc2Cl)c1C(=O)Nc1cccc(Cl)c1,1.5,/
Cc1cnc2c(c1)N1CCC2CC1,1.2,-6.0
COC[C@@H]1N=C(C)OC1c1ccccc1 (stereo not given in full),4.5,17.0
O=C(O)CSc1nc(-c2ccccc2)nc2c1CCCC2,-0.3,-1.0
Nc1nc(-c2ccc3c(c2)CC(=O)N3)cs1,/,-4.0
Cc1occc1-c1nnc(SCC(=O)N(C)C2CCCc3ccccc32)n1C (stereo not given),/,-3.0
O=C(CCn1c(=S)oc2ccccc21)Nc1cccc(O)c1,2.6,7.0
CC1(C)CC(=O)C2=C(C1)C(c1cccnc1)c1c([nH]c(=O)[nH]c1=O)N2 (stereo not given),/,-2.0
Cc1ccc(C(=O)NC(=S)N2CCNC(=O)C2)cc1I,5.2,13.0
COc1ccc2[nH]c(C(=O)N3CCCN(Cc4ccccc4)CC3)cc2c1,0.9,/
NN/C(N)=N/C(N)=Nc1cccc(F)c1,-2.1,/
O=C(NCc1ccc(C(F)(F)F)cc1)c1ccc(F)cc1,-0.7,/
Cc1ccccc1C1C2=C(CCCC2=O)Nc2c1c(=O)[nH]c(=O)n2-c1ccccc1 (stereo not given),7.4,12.0
C=CCc1ccccc1OCC(O)Cn1cnc2ccccc21 (stereo not given),/,-18.0
O=C(COc1cccc2c1CCN(Cc1ccccc1)C2=O)N1CCCCCC1,/,-21.0
CCOc1ccc(Cl)cc1S(=O)(=O)N1CCOCC1,/,-24.0
CCCn1nc(C(=O)N(C)Cc2ccc(OC)cc2OC)c2ccccc2c1=O,/,-3.0
COc1ccc(C2CC(=O)C(C=NCCN3CCNCC3)=C(O)C2)cc1 (stereo not given),0.1,-3.0
O=C(NC1CC1)c1cc2c(=O)[nH]c3ccccc3c2s1,/,4.0
O=C(NCc1cccc(C(F)(F)F)c1)c1ccccn1,/,-9.0
O=C(c1cc2ccccc2oc1=O)N1CCN(Cc2ccc3c(c2)OCO3)CC1,/,21.0
CSc1cccc(NC(=S)NCc2cccn2C)c1,0.7,-6.0
COc1ccccc1/C=C1/Sc2ccc(C(=O)N3CCN(c4ncccn4)CC3)cc2N(C)C1=O,2.2,4.0
CC(C)C(=O)Nc1ccc(-c2nc3cc(C(C)C)ccc3o2)cc1,/,25.0
CCC1CCCCN1c1cc(=O)n2ccccc2n1 (stereo not given),/,10.0
Cc1ccc(S(=O)(=O)C(CC(=O)c2ccco2)c2ccc(Cl)cc2)cc1 (stereo not given),-2.2,4.0
COC(CNC(=O)c1oc2ccc3c(c2c1C)C=CC(C)(C)O3)OC,-1.3,-1.0
O=C(N1CCOCC1)N1CCN(c2ccccc2F)CC1,0.6,20.0
O=C(Nc1nccs1)c1ccc(-c2ccccc2C(F)(F)F)o1,-3.6,-8.0
CC12CC3CC(C1)CC(CC(=O)O)(C3)C2,/,22.0
# New compounds follow.
SMILES,MgrA-DNA mod,S aureus helic
CCOc1ccc(-c2cnc(N)s2)cc1,17.2,-4.0
CCCc1nc2sc3c(Cl)ncnc3c2c2c1CCCC2,0.3,0.0
O=C(NNC(=O)c1ccccc1[N+](=O)[O-])c1ccc(Cl)c(Cl)c1,0.3,/
CCC(Cc1ccccc1)NC(=O)C(Cc1ccccc1)n1cccc1 (stereo not given),/,13.0
CC(C)CCn1cnc2c1c(=O)n(C)c(=O)n2C,/,-9.0
COc1cccc(NC(=O)COc2ccc(C(=O)N3CCN(C)CC3)cc2)c1,/,3.0
CN(C1CCCCC1)S(C)(=O)=O,/,1.0
Cc1cc(C(F)(F)F)c(C#N)c(SCC(=O)c2ccc[nH]2)n1,/,-175.0
O=C(O)CSc1ccnc2cc(Cl)ccc12,-4.8,/
O=C(NNc1cc(C(F)(F)F)ccc1Cl)c1ccc(=O)[nH]c1,/,2.0
Cc1ccc2c(cnn2C(=O)CCCC(=O)N2CCN(c3cccc(Cl)c3)CC2)c1,1.3,-10.0
O=C(Nc1ncn[nH]1)C1c2ccccc2Oc2ccccc21,/,8.0
Cc1ccc(-c2nn(-c3ccc(C)cc3)c3c2cnc2c(F)cccc23)cc1,-0.4,12.0
COc1ccc(/C=C2/SC(=S)N(C(C)C(=O)O)C2=O)cc1OC (stereo not given),/,9.0
CCCCc1c(O)nc(Nc2nc(C)c3cc(C)c(C)cc3n2)[nH]c1=O,1.2,-1.0
O=C(NC1CCCCCC1)C1CCN(S(=O)(=O)c2cccc3nonc23)CC1,/,-18.0
FC(F)(F)c1cc(-c2ccco2)nc2cc(-c3ccco3)nn12,5.1,/
CC(C)Cn1c(=O)c2ccccc2n2c(CCC(=O)Nc3ccccc3)nnc12,/,-19.0
CN(CCc1ccccn1)Cc1ccccc1F,/,-12.0
O=C(OCCN1CCOCC1)c1ccc(O)cc1,0.2,5.0
COc1ccc(C(=O)Nc2nc3ccc4ccccc4c3s2)cc1,/,-6.0
CC(C)C(=O)Nc1cc(S(C)(=O)=O)ccc1Cl,/,-2.0
Cc1cccc(C)c1OCc1nc2c3cnn(C)c3ncn2n1,-0.8,20.0
CCC(O)C#CCN1CCN(C)CC1 (stereo not given),-1.3,-2.0
N#Cc1cnc(Sc2nnc(-c3cccs3)n2-c2ccc(Cl)cc2)nc1N,/,27.0
COc1ccccc1C(=O)Nc1ccc(CN2CCCCC2)cc1,-0.1,-15.0
COc1cccc(NC(=S)N=S(C)(=O)c2ccccc2)c1 (stereo not given),1.1,/
Cc1cc(S(=O)(=O)Oc2ccc(Oc3ccccc3)cc2)c(C)cc1Cl,-2.7,/
O=C(CC1C(=O)N(Cc2ccc(F)cc2)C(=S)N1Cc1ccco1)Nc1ccc(Cl)cc1 (stereo not given),0.8,25.0
C=CCn1c(=O)c2ccccc2n2c(SCC(=O)c3ccc(Cl)cc3)nnc12,/,5.0
O=S(=O)(c1ccc(F)cc1F)n1nccc1-c1csc(-c2ccccc2)n1,-0.9,/
Cc1ccc2c(CSCc3c(C)noc3C)cc(=O)oc2c1,/,-15.0
CC(C)(CC(=O)O)CC(=O)N1CCN(Cc2c(F)cccc2Cl)CC1,-1.5,/
Cn1c(=O)cc(SCC(=O)NCCCN2CCN(c3ccccc3F)CC2)c2cc(Cl)ccc21,/,5.0

# Structural class, the compounds so far with a COOH group
SMILES,MgrA-DNA mod,S aureus helic
CC(=O)Nc1nc([N+](=O)[O-])c(SCC(=O)O)s1,-1.5,/
CC(C(=O)O)N1C(=O)NC2NC(=O)NC21 (stereo not given),-3.0,9.0
CC1Cc2cc(OCC(=O)O)ccc2C1=O (stereo not given),-6.5,8.0
COc1ccc(/C=C2/SC(=O)N(CCC(=O)O)C2=O)cc1,/,-23.0
O=C(O)CCP(=O)(O)CN1CCCCC1,/,-31.0
Cc1ccc2c(c1)nc(C(=O)O)n2CCO,-6.2,0.0
O=C(O)COc1cccc(-c2nc3ccccc3s2)c1,/,25.0
Cc1c(N=C2SC(CC(=O)O)C(=O)N2/N=C/c2ccccc2O)c(=O)n(-c2ccccc2)n1C (stereo not given),1.1,0.0
O=C(O)CSc1nc(-c2ccccc2)nc2c1CCCC2,-0.3,-1.0
CC12CC3CC(C1)CC(CC(=O)O)(C3)C2,/,22.0
O=C(O)CSc1ccnc2cc(Cl)ccc12,-4.8,/
COc1ccc(/C=C2/SC(=S)N(C(C)C(=O)O)C2=O)cc1OC (stereo not given),/,9.0
CC(C)(CC(=O)O)CC(=O)N1CCN(Cc2c(F)cccc2Cl)CC1,-1.5,/

# Compound activity deposited in PubChem BioAssay by ICCB-Longwood Screening Facility, Harvard Medical School.
